# Screening results (PubChem)
# Vaccinia stage = blocks a specific stage of Vaccinia orthopoxvirus infection; Vaccinia-infected cells, mCherry/Venus stage reporter fluorescence; stronger effect = lower value; some inactives read as strong as hits; activity change (mCherry), % (no concentration beside the values); 89,000 compounds, 0.01% hits;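 active = mCherry past -33% and 40 or more points under the early reporter, replicates agreeing; inconclusive = past -33% without that gap or agreement; tested in A549 cells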;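 also: scaled between vehicle wells and reference inhibitor wells; 23 nL library stock went into each well; one replicate is shown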
# Vaccinia stage Venus = recorded beside Vaccinia stage, whose call it bears; activity change (Venus), %; measured here: Venus reporter, other viral stage;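 negative = less Venus signal; first of two replicates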
# Active calls of the source: *; ? = inconclusive; . = no result given.
SMILES,Vaccinia stage,Vaccinia stage Venus
CCCNC(=O)Nc1ccc2c(c1)C(=O)N(C)C[C@@H](OC)[C@H](C)CN(Cc1cncnc1)[C@H](C)CO2,2.8,4.1
C/C=C/c1ccc([C@@H]2[C@@H](CO)N3CCCCN(CCC(F)(F)F)C[C@@H]23)cc1,-8.5,-3.9
C[C@@H]1CN([C@@H](C)CO)C(=O)c2cccc(NS(=O)(=O)c3ccccc3)c2O[C@@H]1CN(C)S(=O)(=O)c1cccs1,-16.9,-8.7
COc1ccc(CN(C)C[C@H]2Oc3ccc(NC(=O)Nc4ccc5c(c4)OCO5)cc3CC(=O)N([C@@H](C)CO)C[C@H]2C)cc1,-13.3,-3.7
CN(C)C(=O)[C@H]1[C@H](CO)[C@H]2Cn3c(ccc(/C=C/c4ccccc4)c3=O)[C@H]2N1CC1CC1,-3.0,5.4
C[C@@H]1CN([C@@H](C)CO)S(=O)(=O)c2ccc(-c3cccnc3)cc2O[C@@H]1CN(C)Cc1ccccn1,11.4,-8.4
O=C(Cc1ccccn1)N1CC(=O)N2[C@@H](CO)[C@@H](c3ccc(-c4ccccc4)cc3)[C@@H]2C1,-3.2,-11.1
Cc1noc(C)c1S(=O)(=O)Nc1ccc2c(c1)C(=O)N([C@@H](C)CO)C[C@H](C)[C@@H](CN(C)C(=O)NC(C)C)O2,5.7,1.8
O=C(C[C@@H]1C=C[C@@H](NC(=O)Nc2ccc(C(F)(F)F)cc2)[C@@H](CO)O1)NCc1ccccn1,-12.4,-7.7
C[C@H](CO)N1C[C@H](C)[C@@H](CN(C)C(=O)CC2CC2)Oc2cc(C#CC3CC3)ccc2S1(=O)=O,-2.3,4.5
C[C@H](CO)N1C[C@H](C)[C@@H](CN(C)C(=O)Nc2cccc3ccccc23)Oc2ccc(NS(=O)(=O)c3cn(C)cn3)cc2CC1=O,8.8,19.0
CN1c2ccc(C#Cc3cccnc3)cc2[C@@H]2[C@@H](CCN2C(=O)C2CCC2)[C@H]1CO,21.3,13.8

# Arranged by count of non-hydrogen atoms (lowest first): some entries from above
SMILES,Vaccinia stage,Vaccinia stage Venus
C/C=C/c1ccc([C@@H]2[C@@H](CO)N3CCCCN(CCC(F)(F)F)C[C@@H]23)cc1,-8.5,-3.9
CN1c2ccc(C#Cc3cccnc3)cc2[C@@H]2[C@@H](CCN2C(=O)C2CCC2)[C@H]1CO,21.3,13.8
C[C@H](CO)N1C[C@H](C)[C@@H](CN(C)C(=O)CC2CC2)Oc2cc(C#CC3CC3)ccc2S1(=O)=O,-2.3,4.5
C[C@@H]1CN([C@@H](C)CO)S(=O)(=O)c2ccc(-c3cccnc3)cc2O[C@@H]1CN(C)Cc1ccccn1,11.4,-8.4
CCCNC(=O)Nc1ccc2c(c1)C(=O)N(C)C[C@@H](OC)[C@H](C)CN(Cc1cncnc1)[C@H](C)CO2,2.8,4.1
C[C@@H]1CN([C@@H](C)CO)C(=O)c2cccc(NS(=O)(=O)c3ccccc3)c2O[C@@H]1CN(C)S(=O)(=O)c1cccs1,-16.9,-8.7
C[C@H](CO)N1C[C@H](C)[C@@H](CN(C)C(=O)Nc2cccc3ccccc23)Oc2ccc(NS(=O)(=O)c3cn(C)cn3)cc2CC1=O,8.8,19.0

# Next structures
SMILES,Vaccinia stage,Vaccinia stage Venus
CCCC(=O)Nc1ccc2c(c1)OC[C@H](C)N(C(=O)C1CCCC1)C[C@H](C)[C@H](OC)CN(C)C2=O,-6.4,0.4
CC(C)CC#Cc1ccc([C@@H]2[C@H]3CN(S(=O)(=O)c4ccccc4)CC(=O)N3[C@H]2CO)cc1,?,.
COc1cccc(S(=O)(=O)N(C)C[C@@H]2OCc3cn(nn3)CCCC(=O)N([C@@H](C)CO)C[C@H]2C)c1,0.5,10.0
Cc1noc(C)c1NC(=O)N(C)C[C@H]1Oc2c(NS(=O)(=O)c3ccc(Cl)cc3)cccc2C(=O)N([C@H](C)CO)C[C@@H]1C,-4.1,7.8
O=C(NCC[C@@H]1CC[C@H](NS(=O)(=O)c2cccc(Cl)c2)[C@@H](CO)O1)c1cnccn1,-20.7,-7.5
COc1cccc(NC(=O)N2CC(=O)N3[C@H](CO)[C@@H](c4ccc(C#CC5CCCC5)cc4)[C@@H]3C2)c1,?,.
CO[C@@H]1CN(C)C(=O)c2cc(NC(=O)CC(F)(F)F)ccc2OC[C@H](C)N(C(=O)C2CCOCC2)C[C@H]1C,12.5,11.5
CO[C@@H]1CN(C)C(=O)c2cc(NC(=O)c3ccc4c(c3)OCO4)ccc2OC[C@H](C)N(CCC(F)(F)F)C[C@@H]1C,-10.6,-9.3
O=C(C[C@@H]1CC[C@H]2[C@@H](COC[C@H](O)CN2Cc2ccc3c(c2)OCO3)O1)N1CCOCC1,16.7,7.1
C[C@H](CO)N1C[C@H](C)[C@@H](CN(C)C(=O)Nc2ccc(C(F)(F)F)cc2)OCCCC[C@H](C)Oc2ccc(NC(=O)Nc3ccc(F)cc3)cc2C1=O,-5.6,0.6
O=C(NC1Cc2ccccc2C1)[C@@H]1[C@@H](CO)[C@@H]2Cn3c(cccc3=O)[C@@H]2N1C(=O)C1CCC1,10.4,10.5
Cc1noc(C)c1NC(=O)N[C@@H]1CC[C@@H](CC(=O)Nc2ccc(-c3ccccc3)cc2)O[C@@H]1CO,-7.9,-8.7
O=C(N[C@H]1C=C[C@@H](CC(=O)N2CCC(Cc3ccccc3)CC2)O[C@H]1CO)c1cnccn1,6.0,-1.5
C[C@@H]1CN([C@@H](C)CO)C(=O)c2cc(NC(=O)c3ccccc3)ccc2O[C@@H](C)CCCCO[C@@H]1CN(C)C(=O)C1CCCCC1,?,.
O=C(C1CCC1)N1CC2(C1)[C@H](c1ccccc1)[C@@H](CO)N2C(=O)c1cccnc1,2.9,2.8
O=C(NC[C@H]1CC[C@H]2[C@H](CN2S(=O)(=O)c2ccccc2)O1)NC1CCCCC1,15.5,24.4
C[C@@H]1CN([C@H](C)CO)C(=O)c2cccc(NC(=O)c3ccncc3)c2O[C@@H]1CN(C)S(=O)(=O)c1ccc(Cl)cc1,-4.3,-3.8
O=C(Nc1cc(F)ccc1F)N1CC(=O)N2[C@H](C1)[C@@H](c1ccc(/C=C/c3ccccc3)cc1)[C@@H]2CO,?,.
COC(=O)[C@@]1(Cc2ccccc2N=[N+]=[N-])N=C(c2ccc(OCCCO)cc2)O[C@H]1c1ccccc1CN=[N+]=[N-],-29.0,-13.8
O=C(NCC[C@H]1CC[C@@H](NC(=O)C2CC2)[C@@H](CO)O1)Nc1ccc(C(F)(F)F)cc1,2.9,6.9
COc1ccc(S(=O)(=O)NC[C@@H]2CC[C@@H]3[C@@H](CN3Cc3cc(F)ccc3F)O2)cc1,-7.6,-4.1
CC(=O)N(C)C[C@H]1Oc2cc(C#Cc3ccc(F)cc3)ccc2S(=O)(=O)N([C@@H](C)CO)C[C@H]1C,-13.5,-7.8
CCCN1C[C@H](C)[C@@H](OC)CN(C)C(=O)c2ccc(NC(=O)c3cnccn3)cc2OC[C@H]1C,10.3,7.6
C[C@H](CO)N1C[C@H](C)[C@@H](CN(C)Cc2ccc(C(=O)Nc3ccccc3N)cc2)Oc2ccc(NS(=O)(=O)c3cccs3)cc2C1=O,13.3,3.2
CC(C)NC(=O)Nc1cccc2c1O[C@H](CN(C)C)[C@H](C)CN([C@H](C)CO)C2=O,23.5,10.7
C[C@H]1CN([C@@H](C)CO)C(=O)c2cccc(NC(=O)Nc3ccccc3)c2O[C@@H]1CN(C)C(=O)Nc1ccc(F)cc1,15.0,10.0
C[C@@H]1CN([C@H](C)CO)C(=O)c2cc(N(C)C)ccc2O[C@@H](C)CCCCO[C@@H]1CN(C)Cc1ccncc1,9.3,1.1
O=C(C1CCC1)N1CC2(C1)[C@H](c1ccccc1)[C@@H](CO)N2Cc1cccnc1,16.2,14.4
COc1ccc2c3c(n(C)c2c1)[C@H](CO)N(CC1CCOCC1)CC31CCN(C(C)=O)CC1,17.4,11.0
O=C(C[C@H]1CC[C@@H]2NC[C@H](O)COC[C@H]2O1)NCc1ccc(Oc2ccccc2)cc1,9.1,4.9
C[C@H](CO)N1C[C@H](C)[C@@H](CN(C)C(=O)c2ccc3ccn(C)c3c2)OCc2cnnn2CCCC1=O,2.4,8.2
O=C(c1ccc(F)cc1)N1CC(=O)N2[C@H](CO)[C@H](c3ccc(C#Cc4ccc(F)cc4)cc3)[C@@H]2C1,?,.
C[C@H]1CN([C@@H](C)CO)C(=O)c2cc(NS(=O)(=O)c3cn(C)cn3)ccc2O[C@H]1CN(C)Cc1ccccc1,1.0,6.4
O=C(CC1CC1)N1[C@@H](CO)[C@@H](c2ccccc2)C12CN(S(=O)(=O)c1ccccc1)C2,12.4,1.4
C[C@@H]1CN([C@H](C)CO)C(=O)c2cc(NC(=O)Nc3ccccc3)ccc2O[C@@H](C)CCCCO[C@H]1CN(C)Cc1ccccc1,?,.
C[C@@H]1CN([C@@H](C)CO)C(=O)Cc2cc(NC(=O)Cc3ccccc3)ccc2O[C@H]1CN(C)C(=O)Nc1ccc2c(c1)OCO2,5.0,3.3
Cc1ccccc1-c1cnc2c(c1)C(=O)N([C@H](C)CO)C[C@@H](C)[C@H](CN(C)C(=O)c1ccc(F)cc1)O2,-20.6,-15.6
C[C@H](CO)N1C[C@H](C)[C@@H](CN(C)CC2CCCCC2)Oc2c(NS(C)(=O)=O)cccc2C1=O,9.4,-1.7
CCCNC(=O)C[C@@H]1CC[C@@H]2[C@H](COC[C@@H](O)CN2C(=O)Nc2cccc(Cl)c2)O1,-8.3,-7.5
COc1ccccc1S(=O)(=O)N(C)C[C@@H]1OCc2ccccc2-c2c(n(C)c3ccccc23)C(=O)N([C@@H](C)CO)C[C@@H]1C,-21.8,-27.4
C[C@H]1CN([C@@H](C)CO)C(=O)c2cc(NC(=O)Nc3ccc(F)cc3)ccc2O[C@@H]1CN(C)C(=O)Nc1cccc2ccccc12,12.2,2.7
CC(C)CC#Cc1ccc2c(c1)O[C@H](CN(C)S(C)(=O)=O)[C@H](C)CN([C@H](C)CO)S2(=O)=O,-12.9,-18.2
CO[C@H]1CN(C)C(=O)c2cc(NC(C)=O)ccc2OC[C@@H](C)N(CC2CC2)C[C@@H]1C,7.2,8.5
C[C@H](CO)N1C[C@H](C)[C@@H](CN(C)S(C)(=O)=O)Oc2ccc(NC(=O)Cc3ccccc3)cc2CC1=O,24.3,10.2
CO[C@@H]1CN(C)C(=O)c2cc(NC(=O)c3cnccn3)ccc2OC[C@@H](C)N(CCc2ccccc2)C[C@@H]1C,-1.0,3.5
C[C@H](CO)N1C[C@H](C)[C@H](CN(C)Cc2ccncc2)Oc2c(NC(=O)Nc3cccc4ccccc34)cccc2C1=O,8.3,11.8
C[C@H]1CN([C@@H](C)CO)C(=O)c2cc(NC(=O)C3CCCCC3)ccc2O[C@H]1CN(C)Cc1ccccc1,10.5,14.2
O=C(C[C@@H]1CC[C@@H]2[C@H](COC[C@H](O)CN2C(=O)Nc2cccc(F)c2)O1)NCc1ccccc1Cl,-29.8,-24.6
COCC#Cc1ccc([C@@H]2[C@@H](CO)N3CCCCN(Cc4cncnc4)C[C@H]23)cc1,25.0,7.5
CC(=O)N1CC(=O)N2[C@H](C1)[C@@H](c1ccc(-c3ccc(C#N)cc3)cc1)[C@@H]2CO,6.9,4.4
C[C@H]1CN([C@@H](C)CO)S(=O)(=O)c2ccc(C3=CCCCC3)cc2O[C@H]1CN(C)C(=O)Nc1ccc2c(c1)OCO2,?,.
CCC(=O)Nc1ccc2c(c1)OC[C@H](C)N(C(=O)CN(C)C)C[C@H](C)[C@@H](OC)CN(C)C2=O,1.5,6.6
C/C=C/c1ccc2c(c1)O[C@H](CN(C)C(=O)NCCC)[C@H](C)CN([C@H](C)CO)S2(=O)=O,-3.6,-0.6
COc1ccccc1-c1cnc2c(c1)C(=O)N([C@H](C)CO)C[C@@H](C)[C@H](CN(C)Cc1cccnc1)O2,-16.4,-10.8
C[C@@H]1CCCCO[C@H](CN(C)C(=O)NC2CCCCC2)[C@@H](C)CN([C@H](C)CO)C(=O)c2cc(NC(=O)Cc3ccccc3)ccc2O1,-18.1,-16.6
COc1ccc(NC(=O)N(C)C[C@H]2OCCCC[C@H](C)Oc3ccc(NC(=O)NC4CCCCC4)cc3C(=O)N([C@@H](C)CO)C[C@H]2C)cc1,7.7,-3.0
CCCNC(=O)N1CCC2(CC1)CN(Cc1ccccn1)[C@H](CO)c1c2c2ccc(OC)cc2n1C,-0.3,3.0
Cc1ccc(S(=O)(=O)N(C)C[C@@H]2Oc3ccc(NC(=O)c4ccncc4)cc3CC(=O)N([C@@H](C)CO)C[C@@H]2C)cc1,-5.3,-3.4
COc1ccc(-c2ccc(C3[C@@H]4CN(Cc5cc(OC)cc(OC)c5)C[C@H]3N4)cc2)cc1 (stereo partly drawn),?,.
O=C(C1CCCCC1)N1CC2(C1)[C@@H](c1ccccc1)[C@@H](CO)N2CCC(F)(F)F,2.0,10.0
# Next section
SMILES,Vaccinia stage,Vaccinia stage Venus
C[C@@H]1CCCCO[C@@H](CN(C)C(=O)C2CCCCC2)[C@H](C)CN([C@H](C)CO)C(=O)c2cc(NC(=O)Nc3cccc4ccccc34)ccc2O1,9.2,5.9
O=C(C[C@@H]1CC[C@@H]2[C@H](COC[C@H](O)CN2Cc2cccc(C(F)(F)F)c2)O1)NCc1ccc(Cl)cc1,?,.
COCCNC(=O)C[C@H]1C[C@H]2c3cc(NC(=O)Nc4ccccc4)ccc3O[C@H]2[C@H](CO)O1,9.3,4.6
COc1ccc(-c2cnc3c(c2)C(=O)N([C@H](C)CO)C[C@@H](C)[C@H](CN(C)C(=O)Cc2cccnc2)O3)cc1,8.8,-0.9

# Two of the compounds above, tab-delimited:
mol	Vaccinia stage	Vaccinia stage Venus
C[C@H]1CN([C@@H](C)CO)S(=O)(=O)c2ccc(C3=CCCCC3)cc2O[C@H]1CN(C)C(=O)Nc1ccc2c(c1)OCO2	?	.
C[C@H](CO)N1C[C@H](C)[C@@H](CN(C)S(C)(=O)=O)Oc2ccc(NC(=O)Cc3ccccc3)cc2CC1=O	24.3	10.2

# An excerpt; the hit share may differ from the screen's.
